Assay outcomes (PubChem)
MT1-MMP act inh = blocks activation of human MT1-MMP; 0.061% of 360,000 active; AID 651647; P50281; GFP/RFP ratio change, % at 20 µM; HT1080 RFP-PRO-GFP cells, GFP/RFP ratio fluorescence, overnight; percent of plate control window, DMSO zero;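 active = GFP/RFP ratio change of at least 30% with cell ATP level not reduced by more than half and red fluorescence within 50% of control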; also: strong numbers were not always called active
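Assay system: HT1080 cells carrying an RFP-PRO-GFP reporter | Dosing: Single dose of 20 µM compound, 1% DMSO final | Incubation: Cells overnight before dosing, compound overnight, 37 °C, 5% CO2 | Evaluation: GFP/RFP fluorescence ratio | Control set: DMSO and RFP-L50D-GFP cell wells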
HIV Env fusion = inhibitors of HIV Env-mediated cell fusion | HeLa-JRFL Env/CEM21 cell fusion, luciferase | inhibition, % at 12.3 µM | 1.1% of 360,000 active;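 active = mean replicate inhibition score of at least 50 and every replicate individually at or above 50; inconclusive = only one of the two criteria met; inactive = mean below 50 and not all replicates reaching 50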;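 also: 0% = plate neutral controls and 100% = maraviroc near 300 nM; one replicate is shown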
Yeast UUG start = modulators of start codon recognition fidelity in yeast; S. cerevisiae UUG-firefly luciferase reporter, luminescence/redox ratio; activity score, % at 18.7 µM; 0.13% of 350,000 active;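 active = replicate mean at a twofold rise or more, about +100% in these data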;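 also: firefly luciferase made from a UUG start codon reports start codon fidelity; reporter light over untreated wells divided by growth signal over untreated wells; some hits fall short of that in this replicate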
CSC inhib = blocks cancer stem cells | cancer stem cell-like cells viability, luminescence | inhibition, % at 7.5 µM | 1.1% of 300,000 active | AID 2717;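 active = mean at 75% or more and at least half the replicates too; inconclusive = mean and replicates disagree; tested in HMLE shEcad cells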;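 also: 0% = median of negative and 100% = median of positive control wells; the first replicate is given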
eIF4H FP inh = inhibitors of RNA binding by human eIF4H. Q15056. eIF4H fluorescence polarization binding assay. inhibition, % at 35 µM. 0.94% of 290,000 active;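 active = 50% or more with normal probe brightness, or confirmed in later tests; inconclusive = above 50% with abnormal brightness, or retests that disagree; inactive = below 50% or failed in later tests; about a fifth of its hits are not listed in these tables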;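 also: calls also rest on retests at 20 µM and on dose response follow-up; 0% = protein and probe with vehicle and 100% = probe without protein; strong numbers were not always called active; many hits fall short of the cut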
PABP polyA inh = blocks human PABP binding to poly(A) RNA; P11940; fluorescence polarization; inhibition, % at 35 µM; 1% of 290,000 active;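 active = 50% or more with normal probe brightness, or confirmed in later tests; inconclusive = above 50% with abnormal brightness, or retests that disagree; inactive = below 50% or failed in later tests; about a fifth of its hits are not listed in these tables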;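 also: calls also rest on retests at 20 µM and on dose response follow-up; controls were probe without protein and protein plus probe with vehicle; some compounds called inactive have numbers as strong as hits; many hits fall short of the cut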
Target sequence (P11940 whole entry, looked up): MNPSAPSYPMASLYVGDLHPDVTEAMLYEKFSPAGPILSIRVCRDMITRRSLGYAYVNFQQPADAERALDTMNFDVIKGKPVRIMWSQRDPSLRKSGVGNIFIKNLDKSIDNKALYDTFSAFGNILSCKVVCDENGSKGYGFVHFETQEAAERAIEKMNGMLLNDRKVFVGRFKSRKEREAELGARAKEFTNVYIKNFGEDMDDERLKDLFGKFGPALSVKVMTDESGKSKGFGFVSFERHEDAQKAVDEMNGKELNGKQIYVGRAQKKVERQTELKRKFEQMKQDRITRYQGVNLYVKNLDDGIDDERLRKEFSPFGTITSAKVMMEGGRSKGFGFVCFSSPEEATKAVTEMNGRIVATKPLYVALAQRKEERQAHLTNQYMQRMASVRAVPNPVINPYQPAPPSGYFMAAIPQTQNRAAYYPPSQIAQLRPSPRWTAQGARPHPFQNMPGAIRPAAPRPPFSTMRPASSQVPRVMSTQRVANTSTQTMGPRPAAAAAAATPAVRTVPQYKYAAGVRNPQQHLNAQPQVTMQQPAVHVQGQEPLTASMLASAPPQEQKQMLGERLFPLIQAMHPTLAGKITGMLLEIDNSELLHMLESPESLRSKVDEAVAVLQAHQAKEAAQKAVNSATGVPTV
Rce1 inhib = inhibitors of yeast Ras-converting enzyme. yeast membranes, quenched prenylated peptide cleavage fluorescence. calls only. 0.27% of 290,000 active. Q03530;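 active = fall in fluorescence gain of 50% or more versus controls, with final raw signal at or below 3038400; inconclusive = same 50% fall but final raw signal above 3038400; inactive = fall in fluorescence gain under 50%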;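 also: plate controls were neutral control wells for no effect and wells lacking membranes for full effect; tested at 10 µM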
Target sequence (Q03530 whole entry, looked up): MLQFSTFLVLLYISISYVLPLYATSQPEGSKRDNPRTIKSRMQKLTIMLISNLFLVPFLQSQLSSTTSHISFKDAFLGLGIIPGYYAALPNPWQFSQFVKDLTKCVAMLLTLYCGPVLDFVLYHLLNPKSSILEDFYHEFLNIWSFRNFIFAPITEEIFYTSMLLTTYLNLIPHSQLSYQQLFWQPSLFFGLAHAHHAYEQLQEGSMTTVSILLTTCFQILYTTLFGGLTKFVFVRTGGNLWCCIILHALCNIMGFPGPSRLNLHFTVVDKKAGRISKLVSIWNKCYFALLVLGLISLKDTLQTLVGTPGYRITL
MT1-MMP act inh RFP = further read-out of MT1-MMP act inh, marked with its call; RFP signal change, %; measured here: RFP expression control read;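 0 = vehicle wells; hits needed this value within 50% of zero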
The depositor's hits bear a star; i = inactive; ? = inconclusive; . = no result given; & = joins results of further samples. The list is partial; count on the stated rates, not on these rows.

SMILES | MT1-MMP act inh | MT1-MMP act inh RFP | HIV Env fusion | Yeast UUG start | CSC inhib | eIF4H FP inh | PABP polyA inh | Rce1 inhib
CC(C)(C)c1ccc(C(=O)NNC(=O)CNC(=O)c2cccs2)cc1 | . | . | -17 | -14 | -5 | . | . | .
Cc1ccc(C)c(S(=O)(=O)N2CCN(C(=O)CCCc3c[nH]c4ccccc34)CC2)c1 | -4 | -8 | . | -6 | 29 | . | . | i
COc1ccc2[nH]c(C)c(CCN(Cc3cccs3)C(=S)Nc3cccc(F)c3)c2c1 | -58 | -12 | . | -11 | 7 | ? | -15 | i
O=C(N/N=C/c1cccnc1)c1ccccc1Br | -6 | 0 | -3 | 0 | -5 | -6 | -4 | i
Cc1nnc(SCC(C)C)[nH]c1=O | 1 | -1 | -33 | -28 | -13 | -9 | 2 | i
Cc1nc2nc(C)c(CCC(=O)NC(C)c3ccc4c(c3)OCCO4)c(C)n2n1 (stereo unspecified) | 0 | 4 | -19 | -16 | -9 | -10 | 11 | i
CCc1c(C)n2nc(C)cc2[nH]c1=O | 1 | -2 | -5 | -25 | 0 | -5 | 2 | i
O=C(CSC1=NS(=O)(=O)c2cc(F)ccc2N1)Nc1ccc(F)cc1 | -2 | -1 | -10 | -14 | 8 | . | . | i
CS(=O)(=O)N(CC(=O)NCCSCc1ccccc1Cl)c1ccc(F)cc1 | -3 | -7 | 22 | 20 | -16 | 1 | -8 | i
COc1cccc(NC(=O)C2CC(=O)N/C(=N/NC(=O)c3ccc(C)cc3)S2)c1 (stereo unspecified) | . | . | 0 | . | 4 | 4 | 7 | i
COc1cc(C(=O)Nc2ccc(S(=O)(=O)Nc3cc(C)nc(C)n3)cc2)cc(OC)c1OC | 9 | 3 | 4 | 9 | 1 | 6 | 6 | i
COC(CNC(=O)c1ccc(N2CCc3ccccc32)c([N+](=O)[O-])c1)OC | 7 | -12 | . | . | -3 | -2 | 1 | i
O=C(NCCCNCc1ccccc1)c1ccccn1 | -3&-2 | 7&3 | 2&-20 | -15 | -7 | -12 | 8 | i
COc1ccc(S(=O)(=O)N(C)C)cc1NC(=O)CCNC(=O)c1ccco1 | -2 | -3 | -5 | -15 | -6 | -3 | 4 | i
O=C(COc1ccccc1)NCC1COc2ccccc2O1 (stereo unspecified) | 1 | 3 | 3 | -11 | -6 | -10 | 5 | i
CCOc1cc(C(=O)N=c2sccn2C)ccc1OC(F)F | -6 | -1 | -16 | -7 | 12 | -9 | -9 | i
N/C(=N\OC(=O)c1ccc2c(c1)OCO2)c1ccncc1 | 4 | 0 | -47 | -21 | -13 | 7 | 0 | i
CCOC(=O)C1(Cc2cccc(OC)c2)CCCN(S(=O)(=O)CC)C1 (stereo unspecified) | -1 | 3 | 6 | 2 | 0 | -18 | 14 | i
CC(C)CN(C(=O)CSc1ncnc2sccc12)C1CCS(=O)(=O)C1 (stereo unspecified) | -4 | 2 | 2 | 1 | . | . | . | .
CC(C)Cn1c(=O)c(CCC(=O)Nc2ccc(N3CCOCC3)cc2)nc2cc(Cl)ccc21 | -5 | -2 | 12 | -18 | 1 | -10 | -7 | i
O=C(NCCNC(=O)c1ccccc1[N+](=O)[O-])c1ccccc1[N+](=O)[O-] | 1 | 2 | -55 | 2 | -6 | . | . | i
COc1ccc(CC(=O)NCc2nn(-c3ccccc3)nc2C)cc1OC | -1 | 1 | 6 | . | 7 | -1 | -5 | i
CCOC(=O)CSc1nc2sccc2c(=O)[nH]1 | -1 | 1 | -42 | -15 | . | -2 | -7 | i
CCS(=O)(=O)Nc1cc(-c2nc3cccnc3s2)ccc1C | -6 | 2 | . | -11 | -11 | -5 | 11 | i
COc1ccc(NC(=O)C2(C)Cc3c(-c4ccc5c(c4)OCO5)ccnc3O2)cc1 (stereo unspecified) | -1 | -5 | -26 | -11 | . | . | . | .
O=C(NCc1ccncc1)C1=NN(c2ccccc2)C(=O)CC1 | -3 | 0 | 0 | . | 5 | -2 | -1 | i
C=CCn1c(SCC(=O)NC(=O)c2cccn2C)nc2ccccc2c1=O | -1 | 0 | 14 | . | . | 12 | -10 | i
CC1=C(C(=O)N2CCOCC2)CC(CC(=O)NCc2ccco2)C(=O)N1Cc1ccc(C(C)(C)C)cc1 (stereo unspecified) | 2 | -2 | -1 | -5 | . | . | . | .
N#CCC(=O)Nc1ncc(Cc2ccccc2Cl)s1 | -12 | 7 | 1 | . | 26 | -12 | 0 | i
CCc1c(C)nc2ccc(Br)cc2c1SCCC#N | -20 | -16 | 38 | . | 2 | -7 | -1 | i
CCC(C)[C@@H](C(=O)Nc1ccc(OC)c(OC)c1)N1Cc2ccccc2C1=O (stereo partly specified) | -7 | 0 | -11 | -4 | 7 | 6 | -6 | i
COc1cccc(/C=N/NC(=O)c2nnn(-c3nonc3N)c2C(C)C)c1 | 4 | 0 | -2 | -5 | -9 | -16 | 3 | i
Cc1cc(C)cc(OC(=O)CCN2C(=O)C3C4C=CC(C5CC45)C3C2=O)c1 (stereo unspecified) | 0 | 6 | 16 | . | . | 4 | -1 | i
COc1cccc(-c2nn(C)c3sc(C(=O)NCc4ccc(C)cc4)cc23)c1 | 3 | -2 | 16 | . | 3 | -8 | 5 | i
COC(=O)N/N=C(\C)c1ccc2ccccc2c1OC(F)F | -2 | 1 | -16 | . | -11 | 15 | 6 | i
NC1=NC2(CCCCC2)N(c2cccc(Cl)c2)C(N)=N1 | -1 | 3 | 8 | -12 | -18 | -7 | -7 | i
CC1(C)Cc2c(sc3c2c(=O)n(-c2cccc(Cl)c2)c(=O)n3CC(N)=O)CO1 | 2 | 1 | 9 | -6 | -9 | 1 | -4 | i
COc1ccc(-c2nnc3ccc(SC)nn23)cc1 | -1 | 1 | -116 | -1 | -4 | -3 | 4 | i
COc1ccc(CC(=O)Oc2ccccc2C)cc1S(=O)(=O)N1CCOCC1 | -5 | 1 | 1 | 8 | -10 | . | . | i
COc1ccc(-c2n[nH]c(=S)n2C2CCCCC2)cc1 | 2 | 3 | . | . | -8 | 4 | -8 | i
CCN(C(=O)CSc1nnc(C)n1-c1ccccc1)C1CCS(=O)(=O)C1 (stereo unspecified) | 0 | 5 | 19 | . | -27 | -6 | 6 | i
CCc1noc(C)c1C(=O)OCC(=O)c1ccccc1OC | 5 | 3 | . | -6 | 2 | -7 | -2 | i
CCCC(=O)Nc1cc(C(=O)O)ccc1S(=O)(=O)c1ccc(C)cc1 | -4 | -1 | -113 | . | -5 | 13 | -9 | i
CC(C)OC(=O)[C@H]1[C@H](c2ccc(Cl)cc2)[C@@](C#N)(C(N)=O)[C@@H]2C=CC(C(N)=O)=CN21 | -10 | -2 | . | -6 | . | 53* | 64* | i
Cn1c(CC(O)c2nc3ccccc3n2C)nc2ccccc21 (stereo unspecified) | -1 | -1 | -8 | -11 | . | . | . | .
COc1ccccc1/C=N/NC(=O)C(=O)Nc1ccccc1OC(F)(F)C(F)F | 1 | 9 | . | -7 | -5 | 6 | -3 | i
CC(C)CCNC(=O)c1cc(S(=O)(=O)N2CCCCC2)ccc1N1CCOCC1 | 0 | 4 | 8 | . | -10 | -9 | -2 | i
O=C(N/N=C/c1ccc[nH]1)c1cc(-c2cccs2)nc2ccccc12 | -3 | -2 | -2 | -10 | 31 | 27 | -23 | i
O=C(OCc1c(F)cccc1Cl)c1cccc(S(=O)(=O)N2CCOCC2)c1 | -4 | 1 | 11 | 5 | . | . | . | .
Cc1cc(Cl)ccc1C(O)c1ncc(-c2ccccc2C(F)(F)F)[nH]1 (stereo unspecified) | 7 | -4 | -20 | -22 | . | . | . | .
COc1ccc(C2Nc3ccccc3C(=O)N2O)cc1OC (stereo unspecified) | 5 | 3 | . | . | -8 | -12 | -6 | i
Cc1ccc(C(=O)OCC(=O)c2cc(C)n(CC3CCCO3)c2C)cc1 (stereo unspecified) | 0 | 0 | -65 | . | -3 | -8 | -2 | i
CCCOc1ccc(N2CC(C(=O)Nc3ccccc3OC)CC2=O)cc1 (stereo unspecified) | 1 | -2 | -13 | 3 | . | 4 | -17 | i
Cc1cc(NC(=O)C(C)Oc2ccc(Cl)cc2Cl)n(-c2ccccc2)n1 (stereo unspecified) | -1 | 1 | 3 | -13 | -14 | 1 | -16 | i
O=C(N(c1ccccc1)c1ccccc1)n1ccnc1 | -1 | -2 | 17 | -20 | 0 | 6 | -3 | i
CCOC(=O)C1=C(c2ccccc2)N=C2SCC(=O)N2C1c1ccc(OCC)c(OCC)c1 (stereo unspecified) | -2 | 5 | . | -10 | . | -4 | -5 | i
Cc1cc(Br)cc(C)c1NC(=O)c1ccccc1[N+](=O)[O-] | 0 | 1 | -11 | . | 1 | 14 | -8 | i
CC1=C(C(=O)N2CCOCC2)C(c2cc(C)cs2)NC(=O)N1 (stereo unspecified) | 1 | 15 | i | 5 | -15 | 9 | 3 | i
C/C(=N/Nc1ccccc1C(=O)O)c1cccs1 | 0 | 4 | -18 | -2 | -12 | -8 | 8 | i
O=C(C1CC1)N1CCN(c2nc3ccccc3s2)CC1 | 4 | -2 | -56 | -18 | -7 | -2 | 3 | i
COCCCNS(=O)(=O)c1ccc2c3c(cccc13)C(=O)S2 | 10 | -10 | . | 17 | . | 3 | 8 | i
COc1cccc(N2CCN(C(=O)CNC(=O)c3sc4ccccc4c3Cl)CC2)c1 | -1 | -1 | -7 | -15 | 3 | 4 | -8 | i
Cc1ccc(C(=O)OCC(=O)NC(=O)Cc2ccccc2)c(O)c1 | 3 | 5 | . | -8 | 4 | -3 | -10 | i

In the list so far, 8 contain an NH in an aromatic ring:
SMILES | MT1-MMP act inh | MT1-MMP act inh RFP | HIV Env fusion | Yeast UUG start | CSC inhib | eIF4H FP inh | PABP polyA inh | Rce1 inhib
Cc1ccc(C)c(S(=O)(=O)N2CCN(C(=O)CCCc3c[nH]c4ccccc34)CC2)c1 | -4 | -8 | . | -6 | 29 | . | . | i
COc1ccc2[nH]c(C)c(CCN(Cc3cccs3)C(=S)Nc3cccc(F)c3)c2c1 | -58 | -12 | . | -11 | 7 | ? | -15 | i
Cc1nnc(SCC(C)C)[nH]c1=O | 1 | -1 | -33 | -28 | -13 | -9 | 2 | i
CCc1c(C)n2nc(C)cc2[nH]c1=O | 1 | -2 | -5 | -25 | 0 | -5 | 2 | i
CCOC(=O)CSc1nc2sccc2c(=O)[nH]1 | -1 | 1 | -42 | -15 | . | -2 | -7 | i
COc1ccc(-c2n[nH]c(=S)n2C2CCCCC2)cc1 | 2 | 3 | . | . | -8 | 4 | -8 | i
O=C(N/N=C/c1ccc[nH]1)c1cc(-c2cccs2)nc2ccccc12 | -3 | -2 | -2 | -10 | 31 | 27 | -23 | i
Cc1cc(Cl)ccc1C(O)c1ncc(-c2ccccc2C(F)(F)F)[nH]1 (stereo unspecified) | 7 | -4 | -20 | -22 | . | . | . | .
